# Bioassay records deposited in PubChem BioAssay by National Center for Advancing Translational Sciences (NCATS).
# YjeE inh: inhibitors of E. coli YjeE (TsaE); P0AF67; purified YjeE, fluorescence polarisation of a bound ADP probe; Potency, µM; 0.05% of 71,000 active; active = well fitted falling curve; inconclusive = weaker or top-dose-only fall, or a rising curve; inactive = flat or poorly fitted curve;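 note: top concentration of the series not given in the record; excess ADP was the control for the full effect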
#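 Purified YjeE (10 uM) with BODIPY Texas Red-labeled ADP probe (2 uM); compounds pin-transferred, 15 min at room temperature. Binding inhibition read as decreased fluorescence polarization; ADP titration as control.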
# Bst PK mod: alters activity of Bacillus stearothermophilus pyruvate kinase. Potency, µM. AID 361. 1.2% of 51,000 active. partly purified Bacillus stearothermophilus pyruvate kinase, luminescence ATP production; ribose 5-phosphate activator present at AC10; in the data active means potency below about 11 µM; inconclusive means mostly about 12 µM to 25 µM; inactive means weaker than that;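 the screen sought inhibitors and activators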;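 note: potency is the fitted concentration of half-maximal effect; scaled between full activation by ribose 5 phosphate and full inhibition by luteolin; about four in five hits inhibit and the cells do not say which; series up to 57 µM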
# Starred values were filed as active, the others as inactive; i = inactive; ? = inconclusive; nt = no result given. These rows are one share of the data; count on the stated rates, not on these rows.
SMILES,YjeE inh,Bst PK mod
O=C(c1ccco1)N1CCN(C(=O)c2oc(=O)c3ccccc3c2-c2ccccc2)CC1,i,nt
COCCOC(=O)C1=C(C)NC2=C(C(=O)CCC2)C1c1ccc2c(c1)OCO2 (centres undefined),i,nt
CCN1CCN(C(c2cccs2)C(C)NS(=O)(=O)c2ccc(Br)cc2)CC1 (centres undefined),i,>57
O=CNC1CCCc2c1[nH]c1ccc(Cl)cc21 (centres undefined),i,nt
COc1ccc(/C=N/n2cnnc2SCc2ccc(OC)cc2)cc1,i,nt
CCOc1cccc(C(=O)Nc2cccnc2)c1,i,nt
CN(CC(=O)N1CCN(C2CCCCC2)CC1)S(=O)(=O)c1cccc2nsnc12,i,>57
Cc1cccc(NC(=O)c2sc3nc(-c4ccccc4)cn3c2C)n1,i,>57
Cn1nc(-c2ccc(N3CCOCC3)c(NC(=O)COc3ccccc3)c2)c2ccccc2c1=O,i,>57
CC(C)c1ccc(OC(=O)NCCO)cc1,i,nt
C=CCn1c(SCC(=O)Nc2sccc2C(N)=O)nc2sc(C)c(C)c2c1=O,i,>57
CCCCC(=O)Nc1nnn(CCC)n1,i,>57
CCC(OC(=O)c1cc2sccc2n1C)C(=O)NCc1ccco1 (centres undefined),i,>57
O=C(OCCN1C(=O)c2ccccc2C1=O)c1cc(S(=O)(=O)N2CCOCC2)ccc1F,i,>57
COc1ccc(OCC(=O)Nc2ccc(C)cc2)cc1,i,nt
O=C(CSc1nccn1-c1ccccc1)N1CCc2ccccc21,i,>57
O=c1c(-c2ccc(F)cc2)nc2cncnc2n1-c1ccccc1,i,nt
CCCCOc1ccc(CN2CCCCC2)cc1,i,nt
CN(C)C(=O)COc1ccc2cc(-c3ccccc3)c(=O)oc2c1,i,nt
COC(=O)CCCCCN1C(=O)NC(c2ccc(-c3ccccc3)cc2)C(C(=O)OCc2ccccc2)=C1C (centres undefined),i,nt
Cc1ccc(-n2c(=O)[nH]c3c(C(N)=O)nc(-c4ccc(C)o4)nc32)cc1,i,>57
O=C(NC1CCCCC1)c1cnn2c(C(F)(F)F)cc(-c3ccco3)nc12,i,>57
CCOc1ccc(OCC)c(NC(=O)CN2CCN(c3cccc(C)c3C)CC2)c1,i,>57
CC1CCN(c2nc3c(c(=O)n(C)c(=O)n3C)n2CCSc2ncccn2)CC1,i,nt
COc1cc(CNC(=O)CCCC/C=C\C(C)C)ccc1O,i,nt
Cc1nnc(SCCn2c(N3CCCC(C)C3)nc3c2c(=O)[nH]c(=O)n3C)s1 (centres undefined),i,>57
Cc1ccc(S(=O)(=O)CCc2ccccn2)cc1,i,nt
CC(=O)N1c2c(cc(Br)cc2S(=O)(=O)NCc2ccc3c(c2)OCO3)CC1C (centres undefined),i,>57
Cc1cc(C(F)F)n2ncc(C(=O)N3CCc4ccccc4C3)c2n1,i,>57
CSc1n[nH]c(NC2=CC(=O)CCC2)n1,i,>57
CCOc1c(S(=O)(=O)N2CCCC2)ccc(Cl)c1Cl,i,>57
Cc1ccc(-n2ncc3c(NCCCN4CCCC4=O)ncnc32)c(C)c1,nt,>11
Cn1cnnc1SCC(=O)Nc1sc2c(c1C(N)=O)CCC2,i,>57
O=C(NCCc1ccccc1)C1CCCN(S(=O)(=O)c2cccc3nonc23)C1 (centres undefined),i,>57
FC(F)(F)c1cc(-c2ccco2)nc(NCc2ccco2)n1,i,>57
COc1cccc(-c2nnc(SCCC(=O)O)n2C)c1,i,>57
COCc1cc(=O)n2[nH]c(-c3cccc(Br)c3)cc2n1,i,nt
CNc1nc(SCC(=O)OC)nc(N2CCOCC2)n1,i,>57
Cn1c(SCCOc2ccccc2Cl)nnc1-c1ccncc1,i,>57
CC(C)CNS(=O)(=O)c1ccc(S(=O)(=O)N2CCCN(Cc3ccccc3)C2)cc1,i,>57
CC(C)CC1(C(=O)O)C=CCN1C(=O)c1ccccc1 (centres undefined),i,nt
CCOc1ccc(NC(=O)N2CCC(n3c(=O)[nH]c4ccccc43)CC2)cc1,i,nt
C=C1c2c(Cl)ccc(O)c2C(O)=C2C(=O)[C@@]3(O)C(O)=C(C(N)=O)C(=O)[C@@H](N(C)C)[C@@H]3[C@@H](O)[C@H]12,i,nt
Cc1cccc(C)c1NC(=O)N1C2CCCC1CC(NC(=O)C(C)(C)C)C2 (centres undefined),i,>57
CC(C)CCn1c(CN(C)Cc2ccccc2)nc2c1c(=O)n(C)c(=O)n2C,i,>57

# The closing 5 compounds of the section above come first, to join the parts.
SMILES,YjeE inh,Bst PK mod
CC(C)CC1(C(=O)O)C=CCN1C(=O)c1ccccc1 (centres undefined),i,nt
CCOc1ccc(NC(=O)N2CCC(n3c(=O)[nH]c4ccccc43)CC2)cc1,i,nt
C=C1c2c(Cl)ccc(O)c2C(O)=C2C(=O)[C@@]3(O)C(O)=C(C(N)=O)C(=O)[C@@H](N(C)C)[C@@H]3[C@@H](O)[C@H]12,i,nt
Cc1cccc(C)c1NC(=O)N1C2CCCC1CC(NC(=O)C(C)(C)C)C2 (centres undefined),i,>57
CC(C)CCn1c(CN(C)Cc2ccccc2)nc2c1c(=O)n(C)c(=O)n2C,i,>57
Cc1cc(N2CCC(C(=O)NC3CCCCC3)CC2)nc(-c2ccccc2)n1,i,>57
NS(=O)(=O)c1ccc(CCNC(=O)C2CCCN2C(=O)OCc2ccccc2)cc1 (centres undefined),i,>57
CCn1c(N2CCN(CC(=O)c3ccc(OC)cc3)CC2)nc2ccccc21,i,>57
CCCCCNCCCCC,i,nt
O=c1c(-c2ccc(F)cc2)coc2c3c(ccc12)OCCO3,i,>57
COc1ccc(C)cc1-n1nnnc1SCn1nnc2ccccc2c1=O,i,>57
COc1ccc2cc(CN(CCc3ccccc3)Cc3nnnn3CC3CCCO3)c(=O)[nH]c2c1 (centres undefined),i,>57
COC(=O)C(C(=O)NCC1CCCO1)C1CCCCCC1 (centres undefined),i,>57
O=C(Cc1cn2ccsc2n1)OCc1nc2ccccc2s1,i,>57
Cc1ccc2cc(CN(Cc3cccs3)C(=O)c3ccco3)c3nnnn3c2c1C,i,>57
N=c1c2c(-c3ccccc3)c(-c3ccccc3)oc2ncn1CCCN1CCOCC1,i,>57
CN(C)c1nc(-c2ccccc2)c2cnn(Cc3ccccc3)c2n1,i,nt
Cc1ccccc1-c1nnc(SCc2ccccc2F)o1,i,nt
COc1cccc(-c2nnc(SCC(=O)N3CC(C)CC(C)C3)o2)c1 (centres undefined),i,nt
CCCOC(=O)c1c(N)sc2c1CCC2,i,nt
O=S(=O)(Cc1ccccc1)N1CCC(c2nc(-c3cccs3)no2)CC1,i,>57
COc1cc(Cl)ccc1NC(=O)COc1ccccc1C(=O)N1CCN(c2ccc(O)cc2)CC1,i,>57
COc1ccc(C(=O)NC(C)c2nc3ccccc3[nH]2)cc1OC (centres undefined),i,>57
Cc1noc(C)c1CSCC(=O)N1CCN(c2ccc(F)cc2)CC1,i,>57
CN1CCN(S(=O)(=O)c2cccc(C(=O)N(c3ccccn3)C3CCCCC3)c2)CC1,i,>57
Cc1ccc(C)c2[nH]c(=O)c(CN(CCN3CCCC3)C(=O)Nc3ccc(F)cc3)cc12,i,?
CCC(C)Sc1nc2c([nH]c3ccccc32)c(=O)n1C (centres undefined),i,nt
CCn1c(COc2ccccc2C)nnc1SCC(=O)NCc1ccccc1,i,>57
Cc1cc(C)n(S(=O)(=O)/C=C/c2ccccc2)n1,nt,>26
CCOc1cc(-c2nc3ccccn3c2NCC2CCCO2)ccc1O (centres undefined),i,>57
Cc1cc(C)nc(NS(=O)(=O)c2ccc(NC(=O)C3CC(=O)N(c4ccccc4)C3)cc2)n1 (centres undefined),i,nt
C1CCC(c2nn3c(-c4n[nH]c5c4CCC5)nnc3s2)CC1,i,>57
CCOc1ccc(-c2[nH]ncc2-c2ccc(OC)c(OC)c2)c(O)c1,i,>57
CC(C)Oc1ccc(C(=O)N2CCCC2C(=O)O)cc1 (centres undefined),i,>57
Cc1cc(C)c(NC(=O)c2ccc(S(=O)(=O)N(C)C)cc2)c(C)n1,i,>57

# Reformatted with two lines to a compound: entries from further up
# Results follow in this order: YjeE inh | Bst PK mod
> C1CCC(c2nn3c(-c4n[nH]c5c4CCC5)nnc3s2)CC1
→ i | >57
> NS(=O)(=O)c1ccc(CCNC(=O)C2CCCN2C(=O)OCc2ccccc2)cc1 (centres undefined)
→ i | >57

# Additional compounds.
SMILES,YjeE inh,Bst PK mod
CCn1ccnc1C(O)c1ccc(N(C)C)cc1 (centres undefined),i,>57
CCOC(=O)c1c(C)n(OCc2ccccc2)c2ccc3c(no[n+]3[O-])c12,i,nt
Cc1ccc(C)c(C(=O)NC2CC(C)(C)NC(C)(C)C2)c1,i,>57
COC(=O)c1ccc(OCC(O)CN2C(=O)NC(C)(C)C2=O)cc1 (centres undefined),i,nt
Cc1nc2ccc(N3C(=O)CCC3=O)cc2[nH]1,i,nt
CCOC(=O)NC(=O)CSc1nc2ccc(OCC)cc2[nH]1,i,nt
COc1cccc(OC)c1/C(O)=C(\C#N)c1nc2ccccc2[nH]1,i,>57
Cc1nc(SCC(=O)c2c(C)[nH]c3ccccc23)c2c(=O)n(C)c(=O)n(CC(C)C)c2n1,i,>57
N#Cc1cc(N)c(Nc2ccccc2)cc1C#N,i,>57
CCCN1Cc2cccc(C(=O)Nc3ccc(CN4CCCC4)cc3)c2C1=O,i,>57
Cc1ccc(C2c3sc(=O)[nH]c3SC3C(=O)NC(=O)C32)cc1 (centres undefined),i,>57
Cc1cccc(C)c1NC(=O)Cn1cnc2c(=O)n(C)c(=O)n(C)c21,i,>57
CN1CCN(CCNC(=O)c2cc3c(=O)n(C)c4ccccc4c3n2C)CC1,i,nt
Cn1c(SCC(=O)c2ccc(F)cc2)nnc1-c1cnccn1,i,>57
CCCCC(CC)COC(=O)COc1ccc(Cl)cc1Cl (centres undefined),i,nt
Cc1ccc2nc3c(cc(C#N)c(=N)n3CC3CCCO3)c(=O)n2c1 (centres undefined),i,>57
O=C(O)c1ccc(Cl)c(S(=O)(=O)N2CCCCCC2)c1,i,>57
O=C(Cn1cnc2c(nnn2Cc2ccc(F)cc2)c1=O)N1CCCc2ccccc21,i,>57
O=C(Nc1ccc2c(c1)OCCO2)C1CCN(S(=O)(=O)c2cccs2)CC1,i,>57
Cc1ccc(C(=O)CSc2nnc(CNc3nc(-c4ccccc4)cs3)n2C)cc1,i,>57
COc1cccc(N2CCN(c3ncnc4c3[nH]c3ccc(F)cc34)CC2C)c1 (centres undefined),nt,>26
COc1ccc(S(=O)(=O)N2C3CCC2CC(NC(=O)C2CC2)C3)cc1 (centres undefined),i,>57
Cc1ccc(-c2noc(CN(C(=O)c3cccc(Br)c3)C(C)C)n2)cc1,i,nt
CCCn1c(=N)n(CC(O)COc2cccc(C)c2)c2ccccc21 (centres undefined),i,>57
CC(C(=O)N=c1sc2ccccc2n1C)N1C(=O)C2CC=CCC2C1=O (centres undefined),i,>57
CCCN(C(=O)c1ccccc1N)c1c(C)n(C)n(-c2ccccc2)c1=O,i,nt
COc1ccc(NC(=O)CSc2nc3c(c(=O)n2-c2ccc(C)cc2)SCC3)c(OC)c1,i,>57
NS(=O)(=O)c1ccc(NC(=O)CSc2nnc(-c3cnccn3)n2-c2ccccc2)cc1,i,>57
CC(=O)OC(C#CCN1CCOCC1)c1ccccc1 (centres undefined),i,nt
O=C(O)[C@@H](O)[C@@H](O)[C@H](O)[C@H](O)CO,i,nt
COc1ccc(CNC(=O)C(C)OC(=O)c2cccn2C)cc1 (centres undefined),i,>57
COc1ccc(-n2nc(C(=O)NCc3ccco3)c3c4ccccc4n(C)c3c2=O)cc1,i,>57
Cc1cc(Cc2cc(C)cc(C(C)(C)C)c2O)c(O)c(Cc2cc(C)cc(C(C)(C)C)c2O)c1,i,nt
O=C(CCSc1nnc(-c2ccncc2)o1)Nc1ccccc1,i,>57
COc1cc(C(c2sc3nc(C)nn3c2O)N2CCc3ccccc3C2)cc(OC)c1OC (centres undefined),i,nt
Cc1ccc(S(=O)(=O)c2c(C)nn(C(C)(C)C)c2OC(=O)c2ccco2)cc1,i,>57
COc1ccc(-c2nsc(SCC(=O)Nc3cc(C)on3)n2)cc1,i,>57
C[C@H](CO)NC(=O)[C@H](C)[C@@H]1C[C@@]1(C)[C@@H](NC(=O)OCc1ccccc1)c1ccccc1,i,nt
Brc1c(CSc2nncn2-c2ccccc2)nc2ncccn12,i,>57
COc1cccc(Cn2c(=O)c(CCc3ccccc3)nc3cnc(OC)nc32)c1,i,nt
CC1(C)COCN1COC1CCCCC1,i,nt
CCN(CC)CCOC(=O)c1cccc(Cl)c1,i,>57
O=C(COC(=O)c1ccc(Br)c(S(=O)(=O)N2CCOCC2)c1)NCC1CCCO1 (centres undefined),i,>57
CCc1c(O)nc(SCC(=O)Nc2ccc(C)cc2)n(C2CCCCC2)c1=O,i,>57
CC(C)(C)NS(=O)(=O)c1ccc(CCC(=O)N2CCCCC2)cc1,i,>57

# Looked up by structure from the list above, five records:
SMILES,YjeE inh,Bst PK mod
COc1cc(C(c2sc3nc(C)nn3c2O)N2CCc3ccccc3C2)cc(OC)c1OC (centres undefined),i,nt
CCN(CC)CCOC(=O)c1cccc(Cl)c1,i,>57
COc1ccc(CNC(=O)C(C)OC(=O)c2cccn2C)cc1 (centres undefined),i,>57
Cc1ccc(S(=O)(=O)c2c(C)nn(C(C)(C)C)c2OC(=O)c2ccco2)cc1,i,>57
COc1cccc(Cn2c(=O)c(CCc3ccccc3)nc3cnc(OC)nc32)c1,i,nt

# The list goes on.
SMILES,YjeE inh,Bst PK mod
C=C(C)Cn1c(=O)c2c(nc3n2CCN3c2cccc(Cl)c2C)n(C)c1=O,i,>57
CN(CCNC(=O)c1ccc(/C=N/O)nc1)Cc1ccccc1,nt,>26
COc1cc(/C=C\C(=O)N2CCC=CC2=O)cc(OC)c1OC,i,nt
Cc1cccc(NCC(O)Cn2cnc3c2c(=O)n(C)c(=O)n3C)c1 (centres undefined),i,>57
